# YB-1 expression = YB-1 expression inhibition. AID 434959. U2OS, qRT-PCR YB-1 vs CDIP delta delta Cp, 16 h; hits give high values; zero = DMSO, each unit about twofold. delta delta Cp (YB-1 minus CDIP) (concentration not given with the values). 30,000 tested, 0.37% active;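 active = delta delta Cp rounded down to an integer at or above 3, about 3 SD of DMSO wells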;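 also: higher means less YB-1 transcript or more CDIP transcript relative to DMSO; stock transfer was 100 nL into about 100 µL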
# * hit, by the source's call.
# A first look:
SMILES,YB-1 expression
C[C@H](CO)N1C[C@H](C)[C@H](CN(C)S(C)(=O)=O)OCc2cn(nn2)CCCC1=O,0.15
C[C@@H]1CN([C@H](C)CO)C(=O)CCCn2cc(nn2)CO[C@@H]1CN(C)C(=O)Nc1ccc(N2CCCCC2)cc1,0.23
O=C(NO)c1cccc(C(=O)N/N=C/c2ccc([N+](=O)[O-])s2)c1,-0.09
C[C@@H]1CN([C@@H](C)CO)C(=O)CCCn2cc(nn2)CO[C@@H]1CN(C)Cc1cccc(C(F)(F)F)c1,0.082
Cc1nc(S(=O)(=O)N2CCN(Cc3ccc(OCCO)cc3)CC2)cn1C,-0.16
C[C@H](CO)N1C[C@H](C)[C@@H](CN(C)S(=O)(=O)c2ccccc2)OCc2cnnn2CCCC1=O,0.026
CNC[C@H]1OCc2cnnn2CCCC(=O)N([C@@H](C)CO)C[C@@H]1C,0.0045
O=C(CCCCCCC(=O)Nc1ccccc1O)N/N=C/c1ccc(O)cc1O,0.23
CCCNC(=O)[C@@]1(C)c2ccccc2C(=O)N(Cc2ccccc2)[C@H]1c1ccc(CO)cc1,-0.0003
C=CC[C@]1(C(=O)NCCCOC)N=C(c2ccc(OCCCO)cc2)O[C@H]1c1ccccc1,0.42
COc1ccc(-c2cnc3c(c2)C(=O)N([C@H](C)CO)C[C@H](C)[C@H](CN(C)C(=O)Nc2ccccc2)O3)cc1,0.082
C[C@@H]1CN([C@@H](C)CO)C(=O)CCCn2nncc2CO[C@H]1CN(C)C(=O)C1CC1,0.18
COc1ccc(NC(=O)N(C)C[C@@H]2OCc3cnnn3CCCC(=O)N([C@@H](C)CO)C[C@H]2C)c(OC)c1,-0.068

# All compounds of this part, repeating the preview:
SMILES,YB-1 expression
C[C@H](CO)N1C[C@H](C)[C@H](CN(C)S(C)(=O)=O)OCc2cn(nn2)CCCC1=O,0.15
C[C@@H]1CN([C@H](C)CO)C(=O)CCCn2cc(nn2)CO[C@@H]1CN(C)C(=O)Nc1ccc(N2CCCCC2)cc1,0.23
O=C(NO)c1cccc(C(=O)N/N=C/c2ccc([N+](=O)[O-])s2)c1,-0.09
C[C@@H]1CN([C@@H](C)CO)C(=O)CCCn2cc(nn2)CO[C@@H]1CN(C)Cc1cccc(C(F)(F)F)c1,0.082
Cc1nc(S(=O)(=O)N2CCN(Cc3ccc(OCCO)cc3)CC2)cn1C,-0.16
C[C@H](CO)N1C[C@H](C)[C@@H](CN(C)S(=O)(=O)c2ccccc2)OCc2cnnn2CCCC1=O,0.026
CNC[C@H]1OCc2cnnn2CCCC(=O)N([C@@H](C)CO)C[C@@H]1C,0.0045
O=C(CCCCCCC(=O)Nc1ccccc1O)N/N=C/c1ccc(O)cc1O,0.23
CCCNC(=O)[C@@]1(C)c2ccccc2C(=O)N(Cc2ccccc2)[C@H]1c1ccc(CO)cc1,-0.0003
C=CC[C@]1(C(=O)NCCCOC)N=C(c2ccc(OCCCO)cc2)O[C@H]1c1ccccc1,0.42
COc1ccc(-c2cnc3c(c2)C(=O)N([C@H](C)CO)C[C@H](C)[C@H](CN(C)C(=O)Nc2ccccc2)O3)cc1,0.082
C[C@@H]1CN([C@@H](C)CO)C(=O)CCCn2nncc2CO[C@H]1CN(C)C(=O)C1CC1,0.18
COc1ccc(NC(=O)N(C)C[C@@H]2OCc3cnnn3CCCC(=O)N([C@@H](C)CO)C[C@H]2C)c(OC)c1,-0.068
COc1ccc([Si](C)(C)[C@H]2[C@H](CCO)O[C@@]3(C(=O)N(C)c4ccccc43)[C@@H]2C)cc1,-0.18
COc1cccc(-c2cnc3c(c2)C(=O)N([C@H](C)CO)C[C@H](C)[C@H](CN(C)C(=O)NC2CCCC2)O3)c1,-0.12
CN(C)c1ccc(/C=N/NC(=O)CCCCC(=O)NO)cc1,0.69
C[C@H](CO)N1C[C@H](C)[C@H](CN(C)Cc2ccc(F)cc2)Oc2ncc(-c3cccc(C(F)(F)F)c3)cc2C1=O,-0.37
O=C(NCC(O)CO)[C@]1(Cc2ccccc2)N=C(c2ccc(OCCCO)cc2)O[C@@H]1c1ccccc1 (stereo not given in full),-0.0092
O=C(NO)c1cccc(C(=O)N/N=C/C2=CCCCC2)c1,-0.6
CC(C)NC(=O)[C@@]1(c2ccc([N+](=O)[O-])cc2)CC(=O)N(CC23CC4CC(CC(C4)C2)C3)[C@@H]1c1ccc(CO)cc1,0.44
COC(=O)[C@H]1[C@@H]2COc3ccccc3[C@H]2N[C@H]1C(=O)OC,-0.37
CC1(C)COC(CCC/C=N/NC(=O)c2ccccn2)OC1,-0.27
COc1ccc([Si](C)(C)[C@H]2[C@H](CCn3cc([C@H](O)c4ccccc4)nn3)O[C@@]3(C(=O)N(C)c4ccccc43)[C@@H]2C)cc1,-0.067
C[C@@H]1CN([C@@H](C)CO)C(=O)CCCn2cc(nn2)CO[C@@H]1CN(C)C(=O)Nc1ccccc1,-0.016
C[C@@H]1CN([C@@H](C)CO)C(=O)CCCn2nncc2CO[C@@H]1CN(C)C(=O)Nc1ccccc1,0.1
COc1ccc(NC(=O)N(C)C[C@@H]2OCc3cn(nn3)CCCC(=O)N([C@@H](C)CO)C[C@@H]2C)cc1,-0.49
NC(=O)NCC#Cc1ccc2c(c1)[C@]1(C(=O)N2)[C@H](C(=O)N2CCCCCCC2)[C@H]2C(=O)O[C@H](c3ccccc3)[C@H](c3ccccc3)N2[C@@H]1c1ccccc1OCCO,-0.46
C[C@H](CO)N1C[C@H](C)[C@H](CN(C)S(C)(=O)=O)Oc2ncc(/C=C/c3ccccc3)cc2C1=O,-0.26
O=C(NO)c1ccc(C(=O)N/N=C/c2ccccc2O)cc1,0.29
C=CCN1Cc2ccccc2[C@H]2OC(c3ccc(OCCCO)cc3)=N[C@@]2(Cc2ccccc2)C1=O,-0.51
C[C@H](CO)N1C[C@H](C)[C@@H](CN(C)S(=O)(=O)c2cccc(F)c2)OCc2cn(nn2)CCCC1=O,0.15
C[C@H]1CN([C@@H](C)CO)C(=O)CCCn2cc(nn2)CO[C@@H]1CN(C)S(C)(=O)=O,0.29
COc1cccc(S(=O)(=O)N(C)C[C@H]2OCc3cnnn3CCCC(=O)N([C@H](C)CO)C[C@H]2C)c1,0.14
COC(=O)CCCCCCC(=O)N/N=C/[C@@H](O)[C@H](O)[C@H](O)CO,-0.17
CC(C)NC(=O)N(C)C[C@@H]1Oc2ncc(C#Cc3ccccc3)cc2C(=O)N([C@H](C)CO)C[C@@H]1C,0.059
Cc1nnc(Sc2ccc(/C=N/NC(=O)c3cccc(C(=O)NO)c3)o2)n1C,-0.17
O=C(N/N=C/c1ccc2ccccc2c1O)c1ccccn1,0.16
O=C(O)C1=C[C@@H](c2csc3ccccc23)C[C@@H](OCc2ccc(CO)cc2)O1,-0.068
O=C1O[C@H](c2ccccc2)[C@H](c2ccccc2)N2[C@H]1[C@@H](C(=O)N1CCN(c3ncccn3)CC1)[C@]1(C(=O)Nc3ccc(C#CCCO)cc31)[C@H]2c1ccccc1OCCO,-0.33
C[C@H]1CN([C@@H](C)CO)C(=O)CCCn2cc(nn2)CO[C@H]1CN(C)S(=O)(=O)c1ccc(Cl)cc1,-0.29
COc1cccc(S(=O)(=O)N(C)C[C@@H]2OCc3cn(nn3)CCCC(=O)N([C@H](C)CO)C[C@H]2C)c1,0.38
O=C(CCCCCCC(=O)Nc1ccccc1O)N/N=C/c1ccc(OCc2ccccc2)cc1O,0.37
COC(=O)CCCCCCC(=O)NN=C1CCCCCCC1,-0.18
COC(=O)CCCCCCC(=O)N/N=C/c1ccncc1Br,-0.4
Cc1ccccc1CN(C)C[C@@H]1OCc2cn(nn2)CCCC(=O)N([C@H](C)CO)C[C@@H]1C,0.67
C=CCNC(=O)[C@@H]1[C@H]2C(=O)O[C@H](c3ccccc3)[C@H](c3ccccc3)N2[C@H](c2ccccc2OCCO)[C@@]12C(=O)N(C(=O)OCCOC)c1ccc(C#Cc3ccc(OC)cc3)cc12,-0.34
CC(C)=CCC[C@H](C)C/C=N/NC(=O)c1ccccn1,-0.18
CCCC(O)C#Cc1cnc2c(c1)C(=O)N([C@H](C)CO)C[C@H](C)[C@H](CN(C)S(=O)(=O)c1ccc(C#N)cc1)O2 (stereo not given in full),-0.052
CC(C)NC(=O)N(C)C[C@H]1OCc2cn(nn2)CCCC(=O)N([C@@H](C)CO)C[C@@H]1C,-0.028
COC(=O)CCCCCCC(=O)N/N=C/c1ccc2c(c1)Cc1ccccc1-2,0.44
COc1ccccc1S(=O)(=O)N(C)C[C@H]1OCc2cnnn2CCCC(=O)N([C@H](C)CO)C[C@@H]1C,-0.021
C[C@H](CO)N1C[C@H](C)[C@H](CN(C)Cc2ccc(C(=O)Nc3ccccc3N)cc2)Oc2ccc(NC(=O)Nc3ccc4c(c3)OCO4)cc2C1=O,0.091
CC(C)=CCC[C@@H](C)C/C=N/NC(=O)c1ccc(C(=O)NO)cc1,-0.26
C[C@@H]1CN([C@H](C)CO)C(=O)CCCn2nncc2CO[C@@H]1CN(C)C(=O)Nc1ccc2c(c1)OCCO2,-0.35
C[C@@H]1CN([C@@H](C)CO)C(=O)CCCn2cc(nn2)CO[C@@H]1CN(C)C(=O)Nc1ccc2c(c1)OCCO2,-0.51
O=C(NO)c1cccc(C(=O)N/N=C/c2ccc3ccccc3c2)c1,-0.055
COC(=O)CCCCCCC(=O)N/N=C/c1ccc(C(=O)O)cc1,-0.22
O=C(CCCCCC(=O)Nc1ccccc1O)N/N=C/c1ccc(O)cc1O,-0.71
O=C(N/N=C/c1c[nH]c2ccccc12)c1ccccn1,0.15
COc1ccccc1CN(C)C[C@H]1OCc2cnnn2CCCC(=O)N([C@H](C)CO)C[C@@H]1C,0.097
# The list continues.
SMILES,YB-1 expression
C[C@@H]1CN([C@H](C)CO)C(=O)CCCn2nncc2CO[C@@H]1CN(C)S(=O)(=O)c1cccc(C#N)c1,-0.51
COCCOC(=O)N1C(=O)[C@@]2(c3cc(C#CCC(C(=O)OC)C(=O)OC)ccc31)[C@H](C(N)=O)[C@H]1C(=O)O[C@H](c3ccccc3)[C@H](c3ccccc3)N1[C@@H]2c1ccc(OCCO)cc1,-0.17
COc1cc(/C=N/NC(=O)CCCCCC(=O)O)c([N+](=O)[O-])cc1OC,0.11
Cc1ccccc1CN(C)C[C@@H]1OCc2cnnn2CCCC(=O)N([C@@H](C)CO)C[C@@H]1C,0.2
C[C@H]1CN([C@@H](C)CO)C(=O)c2cc(NC(=O)Nc3cccc4ccccc34)ccc2O[C@@H]1CN(C)Cc1ccc(C(=O)Nc2ccccc2N)cc1,-0.16
O=C(C1=C[C@@H](c2ccc3c(c2)Cc2ccccc2-3)C[C@@H](OCCCCO)O1)N1CCCCC1,0.31
O=C(CCCCCCC(=O)Nc1ccccc1O)N/N=C/c1ccc([N+](=O)[O-])s1,-0.28
C[C@H](CO)N1C[C@H](C)[C@H](CN(C)S(=O)(=O)c2ccc(-n3cccn3)cc2)OCc2cnnn2CCCC1=O,0.38
C[C@@H]1CN([C@@H](C)CO)C(=O)CCCn2cc(nn2)CO[C@H]1CN(C)C(=O)Nc1ccc2c(c1)OCO2,-0.36
C[C@H]1CN([C@@H](C)CO)C(=O)CCCn2cc(nn2)CO[C@@H]1CN(C)Cc1ccc2c(c1)OCO2,0.18
CC(C)(C)OC(=O)Nc1ccc(/C=N/NC(=O)CCCCCCC(=O)Nc2ccccc2O)cc1,-0.61
C[C@H](CO)N1C[C@H](C)[C@@H](CN(C)Cc2cccc3c2OCCCO3)OCc2cnnn2CCCC1=O,0.34
COc1ccc([Si](C)(C)[C@H]2[C@H](CCO)O[C@@]3(C(=O)N(c4ccccc4)c4ccccc43)[C@@H]2C)cc1,-0.34
COc1ccc([Si](C)(C)[C@@H]2[C@@H](CCn3cc(CCO)nn3)O[C@]3(C(=O)N(C)c4ccccc43)[C@H]2C)cc1,0.16
C[C@@H]1CN([C@H](C)CO)C(=O)CCCn2nncc2CO[C@@H]1CN(C)C(=O)Nc1ccc(C(F)(F)F)cc1,-0.037
C[C@H](CO)N1C[C@H](C)[C@@H](CN(C)Cc2ccncc2)OCc2cnnn2CCCC1=O,0.12
C[C@H](CO)N1C[C@H](C)[C@@H](CN(C)C(=O)Nc2cccc3ccccc23)OCc2cn(nn2)CCCC1=O,-0.16
C[C@@H]1CN([C@@H](C)CO)C(=O)CCCn2cc(nn2)CO[C@@H]1CN(C)C(=O)NC1CCCCC1,0.1
C[C@H](CO)N1C[C@H](C)[C@H](CN(C)C(=O)Nc2cccc3ccccc23)Oc2ncc(C#CC(C)(C)O)cc2C1=O,-0.014
CC(C)(C)OC(=O)NC/C=N/NC(=O)c1ccccn1,0.057
COC(=O)C(CC#Cc1ccc2c(c1)[C@]1(C(=O)N2)[C@H](C(=O)NC[C@H](O)c2ccccc2)[C@H]2C(=O)O[C@H](c3ccccc3)[C@H](c3ccccc3)N2[C@@H]1c1ccccc1OCCO)C(=O)OC,0.14
O=C(CCCCC(=O)N/N=C/c1ccccn1)NO,0.34
C[C@H](CO)N1C[C@H](C)[C@H](CN(C)S(=O)(=O)c2ccccc2)Oc2ncc(-c3cccc(F)c3)cc2C1=O,-0.061
CO[C@@H](CCO)[C@@H](O)c1ccc(O)c(F)c1,-0.35
C[C@H](CO)N1C[C@H](C)[C@H](CN(C)S(C)(=O)=O)Oc2ncc(C#CCN(C)C)cc2C1=O,0.22
C[C@@H]1CN([C@H](C)CO)C(=O)CCCn2nncc2CO[C@H]1CN(C)S(=O)(=O)c1ccccc1F,0.066
O=C1c2ccccc2C(=O)N1C[C@@H]1CCCN(Cc2cccc(OCCO)c2)C1,-0.63
C[C@@H]1CN([C@@H](C)CO)C(=O)CCCn2cc(nn2)CO[C@H]1CN(C)S(=O)(=O)c1cn(C)cn1,-0.16
O=C(N/N=C/[C@H](O)[C@@H](O)[C@H](O)[C@H](O)CO)c1ccccc1O,0.11
C[C@H](CO)N1C[C@H](C)[C@@H](CN(C)Cc2cccc(O)c2)OCc2cnnn2CCCC1=O,-0.45
Cc1ccc(S(=O)(=O)N2CCN(Cc3cccc(OCCO)c3)CC2)cc1,-0.43
COc1cccc(NC(=O)N(C)C[C@H]2OCc3cn(nn3)CCCC(=O)N([C@H](C)CO)C[C@@H]2C)c1,-0.23
O=C(O)CCCCCC(=O)N/N=C/c1cc(Br)cs1,-0.19

# Source: PubChem BioAssay

# The list is partial (hit frequency here may not be typical).
